gsp antagonist = qHTS for Antagonists of gsp, the Etiologic Mutation Responsible for Fibrous Dysplasia/McCune-Albright Syndrome: qHTS; AID 624288, 2012; 340,000 tested, 0.4% active; gsp-mutant cells, cAMP HTRF, 30 min; control for the full effect not named in the record; Potency, µM (top dose mostly 76.9 µM), for inactives: at the top dose activity change, negative = inhibition, most hits filed as inhibitors; active = falling curve of any shape with a large fitted effect; inconclusive = falling curve, mostly with a smaller effect; inactive = flat or rising curve; cell line not stated here;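 further: intracellular cAMP measured with PDE inhibitor Ro 20-1724 present during compound exposure; potency means the concentration at half of the fitted maximal effect; on the % scale 0 is the no-effect control and ±100 the full control effect; nearly all actives have a fitted effect of over 65% in size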
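Cells, 2000/well, grown 16–24 h in DMEM 10% FBS with 0.5 mg/ml G418, then compounds plus […] (300 uM addition stock), 30 min at 37C. cAMP read by HTRF (cAMP-d2 and anti-cAMP antibody-K in lysis buffer) after 30 min RT.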
TRPV1 PAM = HTS Assay for Compounds that Act as Potentiators of the Vanilloid Receptor 1; Transient receptor potential cation channel subfamily V member 1 (Homo sapiens), Q8NER1; potentiation, % at 8.33 µM; 320,000 tested, 0.02% active; TRPV1-expressing cells, Fluo-8 calcium influx, capsaicin EC20 potentiation; host cell line not named in the record; control for the full effect not named in the record; active means potentiation above 80%; inconclusive means 30% to 80%; inactive means below 30%; further: 0% is about no effect
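Cells expressing TRPV1 were dye-loaded with Fluo-8 and read kinetically: 10 s baseline, 3 min after compound (agonist portion), then 2 min after EC20 capsaicin (allosteric enhancer portion). Calcium-bound dye fluorescence at 480/520 nm.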
gsp agonist = qHTS for Agonist of gsp, the Etiologic Mutation Responsible for Fibrous Dysplasia/McCune-Albright Syndrome: qHTS | Potency, µM (top dose mostly 76.9 µM), inactives show at the highest dose activation (cAMP increase), most hits filed as activators | 340,000 tested, 0.13% active | gsp mutant cells, cAMP HTRF, 30 min; control for the full effect not named in the record; active = well fitted activation curve with a large enough effect; inconclusive = small, poorly fitted or top-dose-only effect, or another doubt; inactive = no such curve, though single readings can be large or run the other way; cell line not stated here;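 further: phosphodiesterase inhibitor Ro 20-1724 added with compounds to block cAMP breakdown; potency means the concentration at half of the fitted maximal effect; nearly all actives have a fitted effect of over 60% in size; about a fifth of the inactives were tested at one dose only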
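Cells in DMEM/10% FBS with G418 were pretreated with compounds in DMSO plus […] (300 uM stock) for 30 min at 37C. cAMP was measured by HTRF (cAMP-d2 plus anti-cAMP antibody-K) after 30 min at room temperature.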
TRPML1 inh = qHTS for Inhibitors of the Human Mucolipin Transient Receptor Potential 1 (TRPML1); Mucolipin-1 (Homo sapiens), Q9GZU1; TRPML1-inducible cells, Ca2+ dye fluorescence, FDSS; hits give low values; inhibition of EC80 agonist-evoked calcium signal; activity change, negative = inhibition, % (no concentration beside the values); 390,000 tested, 0.02% active; in the data active means activity change below about -50%; inconclusive means about -30% to -50%; inactive means above about -30%;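 further: stimulus is agonist 54-4 at its EC80 concentration; on the % scale 0 is the no-effect control and ±100 the full control effect; compound concentration not given in the record; the text of the record puts the active cut at -80%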
Target sequence (Q9GZU1 whole entry, looked up): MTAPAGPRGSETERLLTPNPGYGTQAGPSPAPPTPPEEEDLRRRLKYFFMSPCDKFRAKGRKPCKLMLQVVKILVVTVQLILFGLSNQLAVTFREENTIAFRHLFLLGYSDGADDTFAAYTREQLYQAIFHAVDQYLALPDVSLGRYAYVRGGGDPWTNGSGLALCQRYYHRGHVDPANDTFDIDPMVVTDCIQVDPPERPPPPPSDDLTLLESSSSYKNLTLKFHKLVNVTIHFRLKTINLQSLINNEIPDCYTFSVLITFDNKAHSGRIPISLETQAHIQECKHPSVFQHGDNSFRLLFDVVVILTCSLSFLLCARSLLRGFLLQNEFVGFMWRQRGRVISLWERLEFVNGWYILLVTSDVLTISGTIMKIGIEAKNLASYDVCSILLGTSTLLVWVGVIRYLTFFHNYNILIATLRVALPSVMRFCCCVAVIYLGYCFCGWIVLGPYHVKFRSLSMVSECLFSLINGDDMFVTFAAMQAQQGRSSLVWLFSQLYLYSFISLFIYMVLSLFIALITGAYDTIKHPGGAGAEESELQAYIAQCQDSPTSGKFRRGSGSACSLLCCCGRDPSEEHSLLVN
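TRPML1-DL cells, Tet-induced overnight (~16 h, 37 °C) at 1,500 cells/well, were loaded with Ca8 no-wash dye plus quencher for 45-90 min at room temperature. Compounds were pinned during FDSS kinetic reading; agonist 54-4 at EC80 (4 uM final) then added.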
Menin MLL FP FL = qHTS Assay for Inhibitors Targeting the Menin-MLL Interaction in MLL Related Leukemias: Competition With Fluorescein Labeled MLL-derived Peptide; Fluorescence polarization, fluorescein-MLL peptide displacement from menin; FP activity change, % at 61.4 µM; 290,000 tested, under 10 active; AID 1766, 2009; inconclusive = falling polarisation curve, or a change in total fluorescence; inactive = total fluorescence flat and polarisation flat or rising; no compound was filed as active; the % refers to the polarisation; negative = inhibition;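 further: % of control where 0% means no effect; inhibitors lower the polarisation; unlabelled MLL peptide was the positive control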
Sfp PPTase inh = qHTS Assay for Inhibitors of Bacillus subtilis Sfp phosphopantetheinyl transferase (PPTase); 4'-phosphopantetheinyl transferase ffp (Bacillus subtilis), Q9F4F7; Biochemical Sfp PPTase activity, qHTS; Potency, µM, for inactives: max response, negative = inhibition, hits mostly inhibitors; 310,000 tested, 3.5% active; AID 1490, 2009; active means well fitted inhibition curve with a large enough effect; inconclusive means small, poorly fitted or top-dose-only effect, or another doubt; inactive means no such curve, though single readings can be large or run the other way;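 further: the enzyme is Sfp with the accession as filed and its product quenches rhodamine fluorescence; potency means the concentration at half of the fitted maximal effect; 0% = enzyme reaction without inhibitor and -100% = no enzyme wells; top concentration of the series not given in the record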
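Sfp 15 nM + cpd, 15 min RT; start w/ rhodamine-CoA 5 uM, BHQ-2-YbbR 12.5 uM (final); 50 mM Hepes pH 7.6, 10 mM MgCl2, 0.01% NP-40, 0.01% BSA; read 525/598 nm at 0 and 30 min.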
ClpP mod = qHTS Assay for Activators of ClpP; 340,000 tested, 1.9% active; Potency, µM (series often up to 57.5 µM), for the others: at the highest dose activity change, negative = active; AID 651965, 2013; purified B. subtilis ClpP, FRET peptide cleavage, 20 min; active = well fitted falling curve with a large enough effect; inconclusive = small, poorly fitted or top-dose-only effect; inactive = no such curve, though single readings can be large or run the other way; further: potency means the concentration at half of the fitted maximal effect; the source files actives as falling curves though it sought activators and does not explain the sign; nearly all actives have a fitted effect of over 65% in size; many hits overshoot -100%
Target sequence (P80244 whole entry, looked up): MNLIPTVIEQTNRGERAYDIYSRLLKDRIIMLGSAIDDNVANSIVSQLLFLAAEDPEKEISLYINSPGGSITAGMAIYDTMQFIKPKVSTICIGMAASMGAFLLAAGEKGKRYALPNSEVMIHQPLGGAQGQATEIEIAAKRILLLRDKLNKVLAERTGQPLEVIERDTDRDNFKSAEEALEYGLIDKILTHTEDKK
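ClpP 10 microg/mL final, pH 8 Tris/KCl buffer with BSA, glycerol, Tween-20; compound pinned in; FRET-FV substrate; RT 20 min; Ex320/Em430; ΔFRET vs ADEP 5.8 microM, DMSO, no enzyme.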
Starred values were filed as active, the others as inactive; ? = inconclusive; / = no result given; & = joins results of further samples; [ ] = remark or other dose. Rows are unselected, and some 4.9% of all compounds hit somewhere here.

Values run as follows: gsp antagonist	TRPV1 PAM	gsp agonist	TRPML1 inh	Menin MLL FP FL	Sfp PPTase inh	ClpP mod
1: Cc1ccc(C(=O)/C=C/c2ccccc2)o1
 : -4%	-4	2%	-5	3.2	6%	0.9%
2: CC(C(=O)N1CCOCC1)c1ccc([N+](=O)[O-])cc1 (stereo not given)
 : -15%	12	13%	0	-0.9	16%	-1.4%
3: CNc1nc(-c2ccc(Cl)cc2)cs1
 : 0%	-24	7%	-9	1.0	-16%	-4.0%
4: COCCn1c(C(F)(F)F)ccc(NC(=O)c2ccccc2)c1=O
 : 14%	-13	-18%[15.4 µM]	-8	5.6	9%	/
5: CC1(C)Cc2c(c(N3CCOCC3)nc3sc(C(=O)N4CCCCC4)c(N)c23)CO1
 : -4%	16	3%	10	1.6	16µM*	-19%
6: c1ccc(COc2cccc(CNCc3cccnc3)c2)cc1
 : /	-13	4%[15.4 µM]	1	-3.7	-7%	/
7: O=C(NCCCOC(=O)c1ccccc1)c1ccccc1
 : -4%	/	2%	-4	/	/	/
8: COc1cccc(NC(=O)Nc2ccc(C)c(Cl)c2)c1
 : -1%	-31	-2%[15.4 µM]	-9	-4.4	0%	/
9: CN(C)/C=C/C(=O)c1c(F)cccc1F
 : 2%	?	-16%	40	3.7	12%	-0.8%
10: Cc1ccc(C(=O)NCc2ccc3c(c2)OCO3)cc1S(=O)(=O)N1CCOCC1
 : -12%	-10	-3%	-8	3.1	6%	0.3%
11: COc1ccc(CCC(=O)Nc2cc(S(C)(=O)=O)ccc2Cl)cc1
 : /	2	/	/	1.5	19%	/
12: O=C(C[C@@H]1C/C=C\CCCC(=O)OC[C@@H]2CCCN2C1=O)N[C@H](CO)Cc1ccccc1
 : 6%	/	/	15	/	/	1.7%
13: COc1ccc(-c2cc(C(F)(F)F)nc(SCC(=O)NCc3ccco3)n2)cc1OC
 : 29%	-8	0%	41	?	-8%	?
14: C[C@H]1CN([C@@H](C)CO)C(=O)CCCn2nncc2CO[C@H]1CN(C)C(=O)c1ccccc1
 : /	/	-128%	-12	/	/	-0.7%
15: Clc1cccc(CNCC2CCCO2)c1Cl (stereo not given)
 : 4%	?	-10%	5	-0.1	11%	-1.5%
16: Cc1ccccc1CS(=O)(=O)Cc1ccc(C(=O)NCc2cccnc2)o1
 : -2%	-10	15%	53	-0.3	-3%	0.7%
17: COC(=O)c1[nH]c2c(c1C)C(=O)CC(c1cc(OC)ccc1OC)C2 (stereo not given)
 : 16%	13	-27%	14	-0.4	22%	3.0%
18: Cc1ccc(S(=O)(=O)N(CC(=O)NC2CC3CCC2C3)c2ccccc2)cc1 (stereo not given)
 : /	/	?	-4	/	/	-3.3%
19: COc1cc(N(C)C)ccc1C=c1c2ccccc2n2c1cc(-c1ccccc1)[n+]2C
 : -6%	/	9%	16	/	/	-4.0%
20: CCOC(=O)CN1C(=O)/C(=C2\SC(=S)N(NC(=O)c3cccnc3)C2=O)c2ccccc21
 : -3%	-11	-4%	/	-2.4	-14%	2.0%
21: Cc1onc(-c2c(Cl)cccc2Cl)c1C(=O)N[C@@H]1C(=O)N2[C@@H]1SC(C)(C)[C@@H]2C(=O)O
 : -6%&17%	1&18	26%	-15&17	-0.8	2%	-0.7%&0.5%
22: CC(Nc1nc(C(F)(F)F)nc2ccccc12)c1cccs1 (stereo not given)
 : -12%	-12	5%[15.4 µM]	5	6.8	3%	/
23: CC(C)C(=O)NC(=S)Nc1ccc(S(=O)(=O)N2CCCC2)cc1
 : -6%	-12	?	-15	/	-3%	-0.2%
24: CC1CCN(S(=O)(=O)c2ccc(C(=O)Nc3sccc3C(N)=O)cc2)CC1
 : -7%	3	2%	-11	12	-13%	5.2%
25: Clc1ccc(OCCCc2nc(-c3cccnc3)no2)c(Cl)c1
 : -21%	7	-21%	30	-2.8	32µM*	-2.3%
26: CC1CCCCN1C(=S)Nc1ccc(S(=O)(=O)N2CCCCC2)cc1 (stereo not given)
 : /	/	3%	-10	/	/	-1.4%
27: C#Cc1ccc([C@H]2C=C(C(=O)NCc3nc4ccccc4[nH]3)O[C@@H](OCc3ccc(CO)cc3)C2)cc1
 : -11%	/	-19%	1	/	/	-3.9%
28: COc1ccc(F)cc1S(=O)(=O)NCc1ccccc1
 : -11%	1	-39%[inhibitor]	-18	7.8	13%	0.8%
29: C/C(=N\N=C(/N)SC1CC(=O)N(c2ccc(Br)cc2)C1=O)c1cccs1 (stereo not given)
 : -9%	-18	-3%	-14	7.7	13%	-2.3%
30: O=C(NNc1ccc([N+](=O)[O-])cc1)c1ccccc1Cl
 : -10%	6	-71%[inhibitor]	0	4.5	-27%	-1.2%
31: Cc1cc(-c2cccs2)c2c(N)c(C(=O)c3ccc4c(c3)OCO4)sc2n1
 : 2%	11	27%	-16	?	-17%	-0.3%
32: CCO[C@H]1OC(C(=O)O)=C[C@@H](C2CCCCC2)[C@@H]1CCCO
 : 8%	-2	11%	-4	1.8	13%	-4.3%
33: O=C(CSc1nnc(CCCN2C(=O)c3cccc4cccc(c34)C2=O)n1-c1ccccc1)N1CCN(CCO)CC1
 : 10%	5	?	-13	-4.1	1%	14µM*
34: COC(=O)c1sc(NC(=S)NC(=O)c2ccc(C)cc2)nc1C
 : -9%	8	-5%[15.4 µM]	6	1.5	-5%	/
35: O=S(=O)(NCC(c1cccnc1)N1CCN(c2ccccc2)CC1)c1cc(F)ccc1F (stereo not given)
 : 6%	-8	-50%[inhibitor]	-5	-0.1	9%	-1.8%
36: CNC(=O)C1CCC(=O)N1Cc1ccccc1Cl (stereo not given)
 : 3%	-1	-40%[inhibitor]	-3	1.4	10%	-0.6%
37: O=C(CNC(=O)c1ccco1)NCC(=O)OCc1ccc(C(=O)Oc2ccc(Cl)cc2)cc1
 : -22%	-1	-2%	-8	4.1	-5%	0.5%
38: S=C1NC2(CCCCC2)NN1c1ccccc1
 : 9%	11	6%	22	0.0	-61%	/
39: CCOc1ccccc1C(=O)NC1CCN(CC(=O)Nc2cc(OC)ccc2OC)CC1
 : ?	-7	17%	/	0.2	-2%	-1.7%
40: O=C(O)C1CC=CCC1C(=O)NCc1ccc(Cl)c(Cl)c1 (stereo not given)
 : -24%	/	-2%[15.4 µM]	-19	/	/	/
41: C[C@@H]1C=C[C@](Cc2ccccc2)(C(=O)NCC2CC2)N1C(=O)c1ccccc1
 : 6%	8	23%	-1	-1.3&-1.0	-14%&16%	0.5%
42: CN(C(=O)CSc1nc2ccccc2[nH]1)C1CCS(=O)(=O)C1 (stereo not given)
 : 7%	13	6%	-27	/	/	0.5%
43: CC1CC(Nc2ccccc2)=NC1(C)C (stereo not given)
 : 0%	0	14%[15.4 µM]	-8	0.2	-12%	-2.3%
44: C[C@@H](O)[C@@H]1NC(=O)c2cc([N+](=O)[O-])cc(I)c2NCC[C@@H](C(N)=O)NC(=O)CNC1=O
 : 7%	14	/	-6	2.9	-6%	-4.5%
45: Cc1cccc(C)c1N1CCN(C(=O)c2ccc3c(c2)OCO3)CC1
 : -14%	-3	2%[15.4 µM]	-4	/	-19%	-1.7%

Compounds from the list above with an NH in an aromatic ring, in the order listed:
Values run as follows: gsp antagonist	TRPV1 PAM	gsp agonist	TRPML1 inh	Menin MLL FP FL	Sfp PPTase inh	ClpP mod
17: COC(=O)c1[nH]c2c(c1C)C(=O)CC(c1cc(OC)ccc1OC)C2 (stereo not given)
 : 16%	13	-27%	14	-0.4	22%	3.0%
27: C#Cc1ccc([C@H]2C=C(C(=O)NCc3nc4ccccc4[nH]3)O[C@@H](OCc3ccc(CO)cc3)C2)cc1
 : -11%	/	-19%	1	/	/	-3.9%
42: CN(C(=O)CSc1nc2ccccc2[nH]1)C1CCS(=O)(=O)C1 (stereo not given)
 : 7%	13	6%	-27	/	/	0.5%

The list continues.
Values run as follows: gsp antagonist	TRPV1 PAM	gsp agonist	TRPML1 inh	Menin MLL FP FL	Sfp PPTase inh	ClpP mod
46: COc1ccc(NC(=S)N2CCC(c3ccc(C)cc3)C2)cc1 (stereo not given)
 : 1%	2	-36%[inhibitor][15.4 µM]	6	1.2	8%	/
47: N#C/C(=C(/O)C(Cl)(Cl)Cl)c1nc2ccccc2[nH]1
 : 28µM*	1	-12%	25	3.5	26%	2.3%
48: O=c1ccc2cc(S(=O)(=O)NCCCc3ccccc3)ccc2[nH]1
 : 7%	6	?	-7	3.5	6%	-5.4%
49: O=C(Nc1ccccc1)Nc1ccc(Cl)nc1Cl
 : -10%	/	-1%[15.4 µM]	-18	/	/	/
50: COc1ccc(CCNC(=O)C(=O)NCC2CCCN2S(=O)(=O)c2ccccc2)cc1 (stereo not given)
 : -29%	9	-8%[15.4 µM]	7	/	/	/
51: CC(C)n1nnnc1-c1cccc(Cl)c1
 : -15%	10	-10%	3	4.4	4%	1.7%
52: COc1ccc(OC)c(NC(=O)CC2SC(=Nc3ccccc3)N(CCc3ccccn3)C2=O)c1 (stereo not given)
 : -19%	0	6%	38	4.2	4%	-1.4%

Screening data: PubChem BioAssay, National Center for Advancing Translational Sciences (NCATS)
